Screening data as filed in PubChem BioAssay.
Sa RN4220 lethal: S. aureus RN4220 growth inhibition | inhibition, % (test concentration not listed) | actives 0.33% (n = 330,000) | OD600, 16 h;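 active means z-score of -3 or lower and OD600 up to 0.18 on both plates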;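 further: plate controls were untreated cells for no effect and reference antibiotic for full effect; stock transfer was 100 nL into about 80 µL; one replicate is shown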
BJeLR viability: kills HRASV12-expressing BJeLR cells; BJeLR (HRASV12) viability, CellTiter-Glo ATP luminescence, 48 h; reference of the scale not given here; inhibition, % (no concentration beside the values); actives 0.17% (n = 300,000);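 active means replicate mean above 50%; inconclusive means above 50% but judged a plate artefact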;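 further: 50 nL library stock added to about 25 µL; numbers are from one replicate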
ugtP null kill: growth inhibition of S. aureus ugtP deletion strain; S. aureus RN4220 ugtP deletion, OD600 growth, 16 h; some inactives read as strong as hits; growth inhibition, % (no concentration beside the values); actives 0.54% (n = 330,000); AID 1259309;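 active means z-score under -3 and OD600 up to 0.15 on both plates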;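 further: plate controls were untreated wells for no effect and antibiotic for full effect; wells of about 80 µL received 100 nL stock; the first replicate is given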
Autofluor counter: flagged as autofluorescent in microsphere protease counterscreen. compound autofluorescence counterscreen, microsphere flow cytometry; hits give high values. fluorescence intensity (concentration not given with the values). actives 3.1% (n = 360,000). AID 624483;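 active means at least 3 SD above the mean of all compounds, about 16000 in these data; inconclusive means too few beads counted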;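 further: 100 nL of 1 mM stock went into each well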
PrP 5UTR inh: suppresses PrP 5' UTR mRNA reporter expression; inhibition, % (no concentration beside the values); cell-based PrP 5' UTR mRNA reporter, plate reader; actives 0.35% (n = 340,000);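 active means every replicate at 50% or more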;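 further: 0 = median of the neutral control wells; tested in H4 reporter cells; numbers are from one replicate; inactives centre near -14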
Mtb hypoxia rep: Mtb hypoxia fluorescent reporter inhibition. M. tuberculosis hypoxia-regulated fluorescent reporter, fluorescence. fluorescence inhibition, % (concentration not given with the values). actives 0.1% (n = 300,000). AID 1159583;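 active means 35 to 45% if threefold the growth effect, above 45% if 1.5-fold the growth effect; inactive means the rest, general growth blockers included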;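 further: wells of about 50 µL received 100 nL stock; 0% = vehicle wells and 100% = reference inhibitor wells; whole bacteria with a GFP reporter of the hypoxia response; strong numbers were not always called active; many hits fall short of the cut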
Mtb hypoxia rep growth: recorded beside Mtb hypoxia rep, whose call it bears; growth inhibition, %; measured here: M. tuberculosis growth (absorbance);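 0% = vehicle and 100% = reference antibiotic; read after six days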
* = called active by the depositor; ? = inconclusive; · = no result given.

no.	SMILES	PrP 5UTR inh	ugtP null kill	BJeLR viability	Autofluor counter	Sa RN4220 lethal	Mtb hypoxia rep growth	Mtb hypoxia rep
1	O=C(Nc1cccc(-c2nc3ncccc3o2)c1)c1sc2cc(Cl)ccc2c1Cl	-7	-1	0	22567*	4.4	10	13
2	CCCCCCCCCC[n+]1cccc2c3ccccc3ccc21	-17	100*	60*	4627	100*	10	13
3	COc1cc(/C=C2\C(=N)N3N=CSC3=NC2=O)ccc1OS(=O)(=O)c1ccccc1[N+](=O)[O-]	-11	1	-2	4950	4.9	-2	4
4	CN1CCC(OC(=O)Cc2ccccc2)CC1	-30	4	-1	2764	0.2	3	6
5	NCCSC1CC(=O)N(Cc2ccc(F)cc2)C1=O (configuration not stated)	-25	11	2	4448	4.3	8	-3
6	CCCNC(=O)[C@@H]1CCCN1C(=O)C1CCN(S(=O)(=O)c2ccc(C)cc2)CC1	-26	0	4	4676	0.5	5	1
7	O=C(CSc1nc2ccccc2c(=O)n1Cc1ccc(Cl)cc1)NCc1cccs1	-16	-7	2	2687	3.3	-6	1
8	O=C(c1noc2c1CCCCC2)N1CCOCC1	-3	4	9	8206	2.7	-5	-1
9	CNC(=S)Nc1cc2oc3ccccc3c2cc1OC	-23	-5	0	6094	-0.4	19	17
10	CCOc1ccc(NC(=O)COC(=O)c2cc(C)oc2C)cc1	-5	9	·	4695	2.4	-2	2
11	COc1ccc(-c2cn(-c3ccc(OC)cc3)c3[n+]2-c2ccccc2CC3)cc1	-25	-13	5	3183	-7.7	33	15
12	O=C(c1cc(S(=O)(=O)N2CCN(c3ccccc3)CC2)ccc1Cl)N1CCCCCCC1	-25	-3	12	7618	2.2	-7	-4
13	CC(=NNC(=S)NC(C)C)c1cccc([N+](=O)[O-])c1	·	-3	·	·	3.6	9	4
14	CCSC1=NCCN1S(=O)(=O)c1ccccc1	-13	-1	-3	2476	-1.0	-4	-5
15	CN(C)C(=O)Oc1cccc(OCc2n(C)c3ccccc3[n+]2C)c1	-8	3	4	9976	2.7	4	9
16	CCC1CCCCN1CCCNC(=O)CN1C(=O)CSc2ccc(S(=O)(=O)N3CCOCC3)cc21 (configuration not stated)	-18	1	6	5687	0.2	-4	3
17	CN1CCN(C(=O)Nc2ccc3c(c2)N(C)C(=O)c2ccccc2S3)CC1	-14	2	9	4222	18	16	8
18	COc1ccc(-n2nc(C(=O)NCC(=O)NCCN(C)C)c3ccccc3c2=O)c(OC)c1	-39	0	-3	4435	0.4	-1	13
19	CCOc1ccc(NS(=O)(=O)c2ccc(C(=O)N(C)CC(=O)Nc3cccc(OC)c3)cc2)cc1	-9	7	·	3899	5.4	1	4
20	CCC(C)NCCOCCOc1ccc(F)cc1 (configuration not stated)	3	-2	-2	10078	2.2	12	10
21	Cc1ccc2c(C)c(C(=O)N(C)Cc3nccn3C)oc2c1C	-3	6	-1	6059	-1.4	4	10
22	O=C(NCSc1ccccc1)c1ccccc1	-47	4	1	3973	2.5	0	7
23	CCCn1c(C)cc(C(=O)COC(=O)c2nccnc2N)c1C	-31	-1	2	5009	7.5	2	11
24	CCc1ccc(-c2nc(CS(=O)CC(=O)NCCc3ccccc3)c(C)o2)cc1 (configuration not stated)	-22	0	-14	5872	0.3	1	9
25	O=c1c2c(-c3ccco3)csc2nc(SCc2cn3cccnc3n2)n1-c1ccccc1	1	5	-6	2899	5.1	7	10
26	CC1CCCC(C)N1/N=C/c1ccc(O)cc1 (configuration not stated)	-11	·	-5	4128	·	·	·
27	CSCCC(NC(=O)C1CCC(C)CC1)C(=O)OCC(=O)c1ccc(Cl)cc1 (configuration not stated)	-4	13	-7	2034	3.0	-1	4
28	CCn1c(C(=O)O)c(CC(=O)Nc2ccccc2OC)c2ccccc21	-23	-2	2	3860	8.9	6	-7
29	CC(C(=O)NCCN1CCOCC1)(c1ccccc1)c1ccccc1	-11	0	7	4984	3.8	-5	-3
30	CN1CCN(C(=S)c2ccc(Cl)cc2)CC1	-18	-1	3	4811	2.5	·	·
31	O=C(CC1C(=O)NCCN1Cc1ccoc1)NCCc1ccc(Cl)cc1 (configuration not stated)	3	3	2	3304	2.2	5	3
32	OC1(c2ccc(F)cc2)CSC(=Nc2cccnc2)N1Cc1ccco1 (configuration not stated)	-20	5	6	4688	2.5	10	10
33	CSc1nsc(SC)c1C(=O)N1CCN(S(=O)(=O)c2ccc(C)cc2)C1C(C)C (configuration not stated)	-2	7	-1	2450	1.7	·	·
34	COc1ccc(/C=C/C(=O)Nc2ccc(OC)nc2)cc1	-19	14	-5	2692	2.7	-6	-1
35	C/C(=N\NC(=O)c1cccc(S(=O)(=O)Nc2ccccc2Cl)c1)c1ccc(-n2ccnc2)cc1	-9	·	3	3364	·	·	·
36	COc1ccc(C(CCN2CCOCC2)c2c(O)cc(OC)cc2OC)cc1 (configuration not stated)	-17	2	10	3893	1.6	20	19
37	COc1ccc2[nH]c3nc(SCC(=O)NNC(=O)c4ccc(OC)c(OC)c4)nnc3c2c1	4	-3	-9	21437*	-1.5	-1	-4
38	COCCN(CC1CCCN(C2Cc3ccccc3C2)C1)C(=O)CSC (configuration not stated)	-57	2	-2	4261	3.0	-8	3
39	CC(C)(C)c1ccc(C(=O)NNC(=S)NCc2ccco2)cc1	-34	1	-2	4314	2.9	13	5
40	COc1ccc(NC(=O)c2nc3nc(C)cc(C(F)F)n3n2)cc1OC	3	0	-4	5275	-12	5	4
41	CCN(CC)C(=O)[C@H]1C[C@H](CC(=O)NCc2ccc(OC)c(OC)c2)C(=O)N2CCc3c([nH]c4cc(CCC(=O)N(C)C)ccc34)[C@]12C	-6	1	·	3727	2.8	3	-11
42	Clc1ccccc1-c1ccc(CN2CCN(c3ccccc3)CC2)o1	-4	29	1	2926	-4.6	12	9
43	O=C(CSc1nnc(C2CCCCC2)o1)Nc1ccccc1Cl	-39	5	-2	3653	3.1	·	·
44	Cc1ccc2c(Cl)cc(Cl)c(OCC(=O)NC(C)(C)C)c2n1	-12	-5	5	3329	6.0	9	2
45	Cc1nnc(NC2=NCCCCC2)o1	-16	-5	3	3912	-7.2	1	-8
46	CCCCN1C(=O)NC(c2ccc(OC)cc2)C(C(=O)OCc2ccccc2)=C1C (configuration not stated)	-16	-14	-5	2960	8.1	7	5
47	Cc1csc(SCC(=O)NC(=O)Cc2ccccc2)n1	-5	3	16	2479	-0.5	3	3
48	Cc1ccc(NC(=O)CSCC(=O)OC(C)C(=O)Nc2ccc(S(N)(=O)=O)cc2)c(C)c1 (configuration not stated)	-13	15	-7	4945	4.0	-12	1
49	O=C(c1ccc2c3c(cccc13)CC2)N1CCOCC1	-11	-2	-6	4251	-1.1	·	·
50	Cc1ccc(CS(=O)(=O)CCC(=O)NCCC(C)C)cc1	-13	7	7	11607	0.8	15	8
51	CC(C)=CC(=O)Nc1ccc(Cl)cc1	-121	15	-8	2212	6.0	6	12
52	COc1cccc(C=NNC(=O)c2ccc(=O)n(C)c2)c1OC	·	1	·	·	1.4	0	1
53	S=C(Nc1ccc(Cl)c(Cl)c1)N1CCCC1	-25	6	5	4260	1.0	8	3
54	CC1CCN(CCCCOc2cccc(Br)c2)CC1	-21	0	-3	2167	3.6	7	23
55	CC1CCCN(c2nc3c(c(=O)[nH]c(=O)n3C)n2CCSc2nc3ccccc3o2)C1 (configuration not stated)	-7	-16	-14	4545	-7.9	7	4
56	CNC(=O)Oc1ccc(C(=O)N2c3ccccc3NC(=O)C2C)cc1 (configuration not stated)	-33	12	14	4201	4.6	2	18
57	COC(=O)Cn1cnc2c(nnn2-c2ccc(C)cc2)c1=O	-7	1	13	10946	2.8	5	3
58	CC(C)(/C=N/O)N(O)C=C1C=CC(=O)C=C1	-18	·	8	3496	·	·	·
59	COc1ccc(OCc2cc(C(=O)N(C)Cc3cc(C4CC4)n[nH]3)no2)c(Cl)c1	-46	1	1	6005	2.8	7	0
60	COc1cc(/C=N/O)cc(Cl)c1OC	-17	·	-4	2660	·	·	·

Additional results.
no.	SMILES	PrP 5UTR inh	ugtP null kill	BJeLR viability	Autofluor counter	Sa RN4220 lethal	Mtb hypoxia rep growth	Mtb hypoxia rep
61	CN1CCN(S(=O)(=O)c2ccc(NS(=O)(=O)c3ccccc3)cc2)CC1	-11	-1	7	5174	0.2	12	10
62	N#C/C(=C\c1ccc(-c2ccc(F)cc2)o1)C(=O)Nc1nc(-c2cccs2)cs1	-13	-15	-16	2530	5.8	-11	2
63	O=C(CSc1nc2ccccc2c(=O)n1Cc1ccco1)NCc1ccccc1	0	5	2	9203	0.8	0	4
64	CC(=O)N1CCC2(CC1)C(C#N)=C(N)Oc1n[nH]c(C(F)(F)F)c12	-9	-1	1	?	1.6	-2	-2
65	CCN(CC)c1ncnnc1-c1ccccc1	-21	10	3	2430	4.8	-3	5
66	CC1CN(S(=O)(=O)c2ccccc2)C(C)CN1S(=O)(=O)c1ccccc1 (configuration not stated)	-17	6	-4	4911	4.9	9	7
67	Cc1ccc(Cl)c(NC(=O)COC(=O)c2nn(C)c(=O)c3ccccc23)c1Cl	-13	1	·	6124	8.0	4	1
68	NC(=O)c1ccc2nc(-c3ccccc3)c(-c3ccccc3)nc2c1	-26	20	3	2905	3.7	-9	12
69	Cc1cc(C)c(S(=O)(=O)Nc2nccs2)c(C)c1	-26	11	2	3734	11	-2	10
70	COC(=O)[C@H]1CN(C(=O)c2ccccc2)C(=O)N1	-9	·	-10	4367	·	·	·
71	O=C(N/C(=C/c1ccc(F)cc1)C(=O)N1CCCCC1)c1ccco1	-12	11	-3	6590	4.7	0	7
72	COCc1c(C(=O)NN=C(C)c2ccncc2)nnn1-c1nonc1N	·	3	·	·	2.7	-3	-14
73	CCCCn1c(N)c(N(CC)C(=O)/C=C/c2ccco2)c(=O)[nH]c1=O	-23	9	-22	3282	3.8	1	3
74	Cc1ccc2cc(/C=N/NC(=O)[C@H]3C[C@@H]3c3ccccc3)c(Cl)nc2c1	-24	·	-1	2708	·	·	·
75	COc1ccc(N2C3=C(C(=O)CC(C)(C)C3)C(c3ccccc3OC)C3=C2CC(C)(C)CC3=O)cc1	-11	6	2	4156	-2.1	6	2
76	Cc1c(Cl)cccc1NC(=O)COC(=O)C12CC3CC(CC(O)(C3)C1)C2	-12	1	·	6484	2.2	-7	-15
77	CC(=O)Oc1ccc(C(=O)[C@H]2[C@H]3C(=O)N(c4cccc5ccccc45)C(=O)[C@H]3[C@@H]3C=CC=NN32)cc1	-14	-1	-7	3005	11	11	7
78	COc1cc(C=NNC(=O)c2cc[n+]([O-])cc2)cc(OC)c1OC	·	8	·	·	1.1	13	15
79	CC(=C1C2C=CC1C1C(=O)NC(=O)C21)c1ccccc1 (configuration not stated)	-10	7	-4	10880	1.5	3	5
80	CCCCn1c(N)c(N(CC(C)C)C(=O)CSC(C)C(=O)Nc2cc(C)on2)c(=O)[nH]c1=O (configuration not stated)	-9	2	-3	4598	2.9	-2	5
81	CC(Cc1cnccn1)NCc1c(C(=O)N2CCCCCCC2)nc2ccc(Cl)cn12 (configuration not stated)	-6	3	6	5318	-2.0	3	5
82	CC(C)CN(C(=O)CSc1nnc(-c2ccco2)o1)c1c(N)n(Cc2ccccc2)c(=O)[nH]c1=O	-18	1	-14	3861	4.7	4	8
83	CC1(C)CC(NS(=O)(=O)c2ccc(Cl)cc2)CC(C)(C)N1	-8	5	1	3727	-0.4	5	8
84	Nc1nonc1NC(=O)CSc1nc2ccccc2s1	-4	-5	3	4443	-3.1	·	·
85	COC(=O)c1ccc(C)c(NC(=O)CCc2ccc(OC)c(OC)c2)c1	-23	2	-1	2602	7.5	3	7
86	CCOC(=O)c1sc(NC(=O)CN2CCN(c3ccccc3)CC2)nc1C	-16	0	-1	3826	7.3	-3	1

Three of these compounds, set out differently.
82	CC(C)CN(C(=O)CSc1nnc(-c2ccco2)o1)c1c(N)n(Cc2ccccc2)c(=O)[nH]c1=O
83	CC1(C)CC(NS(=O)(=O)c2ccc(Cl)cc2)CC(C)(C)N1
84	Nc1nonc1NC(=O)CSc1nc2ccccc2s1
entry no. | 82 | 83 | 84
PrP 5UTR inh | -18 | -8 | -4
ugtP null kill | 1 | 5 | -5
BJeLR viability | -14 | 1 | 3
Autofluor counter | 3861 | 3727 | 4443
Sa RN4220 lethal | 4.7 | -0.4 | -3.1
Mtb hypoxia rep growth | 4 | 5 | ·
Mtb hypoxia rep | 8 | 8 | ·
